KCNQ2 inh – KCNQ2 channel blockers in CHO-K1 cells – cell-based, FluxOR thallium flux, B-score, primary screen (AID 2156); 20 min; hits give low values; only compounds with negative scores are shown here; some inactives read as strong as hits; 1.1% of 310,000 active; B-score at 10 µM; O88943;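 active = fluorescence ratio B-score at most minus 3 library SDs, with starting brightness B-score within 2 library SDs, cut at about -5.5 in these data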
Target sequence (O88943 whole entry, looked up): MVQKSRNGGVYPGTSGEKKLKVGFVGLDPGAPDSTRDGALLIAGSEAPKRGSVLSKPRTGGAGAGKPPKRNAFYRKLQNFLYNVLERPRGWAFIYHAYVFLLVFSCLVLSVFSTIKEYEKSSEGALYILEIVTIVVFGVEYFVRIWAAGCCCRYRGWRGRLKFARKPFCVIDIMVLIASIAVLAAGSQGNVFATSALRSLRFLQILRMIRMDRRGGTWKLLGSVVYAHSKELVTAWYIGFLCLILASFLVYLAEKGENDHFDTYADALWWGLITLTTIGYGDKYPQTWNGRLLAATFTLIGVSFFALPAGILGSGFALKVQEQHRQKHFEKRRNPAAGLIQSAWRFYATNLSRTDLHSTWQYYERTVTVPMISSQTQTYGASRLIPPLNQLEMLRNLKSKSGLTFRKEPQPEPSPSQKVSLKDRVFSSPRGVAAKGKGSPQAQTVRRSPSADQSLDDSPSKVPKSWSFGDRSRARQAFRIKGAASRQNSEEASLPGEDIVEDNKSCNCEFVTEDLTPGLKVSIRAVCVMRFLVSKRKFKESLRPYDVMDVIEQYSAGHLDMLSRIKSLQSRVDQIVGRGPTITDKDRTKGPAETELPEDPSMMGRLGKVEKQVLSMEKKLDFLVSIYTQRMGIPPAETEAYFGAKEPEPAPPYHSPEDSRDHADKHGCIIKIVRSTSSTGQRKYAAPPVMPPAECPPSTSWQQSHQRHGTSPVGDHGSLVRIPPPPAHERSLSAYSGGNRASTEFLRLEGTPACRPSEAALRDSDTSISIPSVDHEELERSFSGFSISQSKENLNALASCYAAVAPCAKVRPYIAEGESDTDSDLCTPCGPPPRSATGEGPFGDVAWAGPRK
KCNQ2 inh baseline – also measured in KCNQ2 inh; calls as there; B-score; measured here: initial fluorescence intensity artifact check;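 brightness before thallium and not channel activity; 0 = typical well and far values either way flag optical interference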
An asterisk follows results filed as active; i = inactive. Only part of the results is shown. The share of hits here may be higher or lower than overall.

Sample of the layout:
SMILES	KCNQ2 inh	KCNQ2 inh baseline
O=c1c([N+](=O)[O-])c(N2CCCCC2)c2ccccc2n1-c1ccccc1	i	1.2
Cc1ccccc1NC(=O)C(C)O/N=C/c1cccc([N+](=O)[O-])c1 (configuration not stated)	i	-2.3
COc1cc(/C=C(\C#N)c2nc3ccccc3[nH]2)ccc1O	i	5.1
Cc1ccccc1OCC(O)CNC1CCCC1 (configuration not stated)	i	0.22

All compounds of this part (from the top)
SMILES	KCNQ2 inh	KCNQ2 inh baseline
O=c1c([N+](=O)[O-])c(N2CCCCC2)c2ccccc2n1-c1ccccc1	i	1.2
Cc1ccccc1NC(=O)C(C)O/N=C/c1cccc([N+](=O)[O-])c1 (configuration not stated)	i	-2.3
COc1cc(/C=C(\C#N)c2nc3ccccc3[nH]2)ccc1O	i	5.1
Cc1ccccc1OCC(O)CNC1CCCC1 (configuration not stated)	i	0.22
O=C(CSc1nc2ccccc2[nH]1)N1c2ccccc2Sc2ccccc21	i	-1.3
CC1(C)CC(OC(=O)c2ccco2)CC(C)(C)N1O	i	1.1
CC(=O)CCC1C2C(O)C(C(C)C)C(OC(=O)/C=C/c3ccccc3)CC12C (configuration not stated)	i	0.4
C[C@H](NC(=O)c1nc[nH]c1C(=O)NCC(=O)OCc1ccccc1)C(=O)OCc1ccccc1	i	0.03
O=C(c1ccccc1)N1CCN(CC#CC2(O)CCCCC2)CC1	i	-1.6
S=c1[nH]c(-c2ccccc2)cn1/N=C/c1cccc2ccccc12	i	0.36
Cc1ccc(C(=O)N2CCN(C(=O)c3ccccc3)C2c2ccc(N(C)C)cc2)cc1 (configuration not stated)	i	-0.43
CCC(C(=O)Nc1ccsc1C(=O)OC)c1ccccc1 (configuration not stated)	i	2.9
CC1(C)CC(=O)C2=C(C1)Nc1ccccc1N=C2	i	0.8
Cc1cc(OC(C)C(=O)N2CCN(c3ccc(F)cc3)CC2)c2c(C)cc(=O)oc2c1 (configuration not stated)	i	-0.12
CC1CCCCN1C(=O)Cn1c(=O)oc2cc(S(=O)(=O)N3CCCCC3)ccc21 (configuration not stated)	i	-0.56
CCn1c2ccccc2c2cc(NC(=O)CSc3nnc(-c4ccc(OC)c(OC)c4)n3N)ccc21	i	2.1
O=C(Nc1ccccc1Cl)ON=C1c2ccccc2-c2ccccc21	i	0.56
CC1(C)C(C=C(Cl)Cl)C1C(=O)N1CCN(c2ccccc2)CC1 (configuration not stated)	-5.7*	-1.7*
C=C(C)c1cccc(C(C)(C)NC(=O)NCc2ccncc2)c1	i	-0.19
C=CCOC(=O)C1=C(C)NC(SCC(=O)OCC)=C(C#N)C1c1ccc(C)cc1 (configuration not stated)	-6.4*	-0.52*
COc1cc(/C=C(\C#N)C(=O)NC(C)C)cc(Cl)c1O	i	1.7
COc1cc2cc(C(c3nnnn3C(C)(C)C)N3CCc4ccccc43)c(=O)[nH]c2cc1OC (configuration not stated)	i	-0.77
CC(C)(C)C1CCc2c(sc(NC(=O)CSc3nnc(-c4ccccc4)o3)c2C#N)C1 (configuration not stated)	i	0.01
O=C(/C=C/c1ccccc1)/C=C/c1ccccc1	i	1.6
Cc1[nH]c2ccccc2c1/C=N/NC(=O)CNC(=O)c1cccs1	i	-2.6
CCOc1ccccc1NC(=O)CN(Cc1ccccc1)S(C)(=O)=O	i	0.79
CC1CC(C)CN(S(=O)(=O)c2ccc3c(c2)CCN3C(=O)C2CC2)C1 (configuration not stated)	i	-0.22
Cc1ccc(NC(=O)CNC(=O)c2cccs2)c(O)c1	i	2.3
O=C(O)C1=C[C@@H](c2ccc(C(F)(F)F)cc2)C[C@@H](OCc2ccc(CO)cc2)O1	i	1
CC(C)(C)C(=O)N1CCC[C@H]1C(O)(c1ccccc1)c1ccccc1	i	-0.11
CCOc1cccc(OCCOCCOc2ccccc2C(C)=O)c1	i	-0.21
C[C@@H](C(=O)NCC1CC1)[C@@H]1C[C@@]1(C)[C@@H](NC(=O)OCc1ccccc1)c1ccccc1	i	0.05
CC1(C)c2cc(O)ccc2OC1N1CCOCC1 (configuration not stated)	i	2.8
COc1cccc(OC)c1C(=O)Nc1c(C(=O)N2CCN(c3ccccn3)CC2)oc2ccccc12	i	-0.15
COC(=O)CSc1nnc(-c2ccoc2C)n1-c1ccc(C)cc1	i	-0.88
CCOC(=O)N1CCc2c(sc3c2c(=O)n(Cc2ccccc2)c(=O)n3CC(=O)NCCOC)C1	i	-0.47
CN(Cc1ccon1)Cc1cn(C)nc1-c1ccc(Oc2ccccc2)cc1	i	-0.1
Cc1oc(-c2ccc(Cl)cc2)nc1CS(=O)CC(=O)NCCCN1CCN(Cc2ccccc2)CC1 (configuration not stated)	i	3.1
CCC(C)(C)NC(=O)C(c1cccc(OC)c1)N(C(=O)CNC(=O)c1cccs1)c1cccnc1 (configuration not stated)	i	-0.27
O=C1/C(=C/c2cccs2)CCC/C1=C\c1cccs1	i	0.62

Next section, starting with the last 2 of the part before.
SMILES	KCNQ2 inh	KCNQ2 inh baseline
CCC(C)(C)NC(=O)C(c1cccc(OC)c1)N(C(=O)CNC(=O)c1cccs1)c1cccnc1 (configuration not stated)	i	-0.27
O=C1/C(=C/c2cccs2)CCC/C1=C\c1cccs1	i	0.62
COc1cccc(C2C(C(=O)c3cccs3)=C(O)C(=O)N2CCN2CCOCC2)c1OC (configuration not stated)	i	0.16
CC1=Nc2ccc(Br)cc2C(c2ccccc2)N1CC(=O)O (configuration not stated)	i	-0.53
C/C(=N/NC(=O)CCC(=O)Nc1cccc(Cl)c1)c1ccc(C)cc1	i	0.7
Cc1nc(Sc2ccccc2)c(C#N)c(C)c1[N+](=O)[O-]	i	-0.16
CCOc1ccc(N(CC(=O)NCc2ccccc2)S(=O)(=O)c2c(C)noc2C)cc1	i	1.1
COc1ccc(-c2noc(CCC(=O)Nc3cccnc3)n2)cc1OC	i	-0.39
CC(C)C(=O)Nc1cc2c3c(c1)CCN3C(=O)CC2	i	-0.12
Cc1nn(Cc2ccc(Cl)cc2Cl)c(C)c1NC(=O)NC12CC3CC(CC(C3)C1)C2	i	0.84
C/C(=N/O)c1ccccn1	i	-1.1
CCOc1ccc(CN2C(=O)c3ccccc3C2C(=O)NCc2cccnc2)cc1 (configuration not stated)	i	0.2
COc1ccc(-n2cc(C(=O)O)c(=O)cc2C)cc1	i	-0.9
COc1ccc2c(c1)CCCC21NC(=O)NC1=O (configuration not stated)	i	-0.39
CC(C)NC(=O)c1sc2nc(-c3cccs3)cc(-c3cccs3)c2c1N	i	-0.01
CCOc1cccc2cc(-c3csc(NC(=O)CCC(=O)NCCCN4CCC(C)CC4)n3)c(=O)oc12	i	-1.1
COC(=O)CNc1nc(Cl)nc(Nc2ccc(C)cc2)n1	i	0.04
Cc1cc(C(=O)OCC(=O)N2c3ccccc3CC2C)c(C)o1 (configuration not stated)	i	-1.1
COCN(C#N)c1nc(N(C)C)nc(N(C)C)n1	i	0.32
CC(CCc1ccccc1)NC(=O)/C=C/c1ccc(F)cc1 (configuration not stated)	i	0.01
COC(=O)C1=C(CS(=O)(=O)c2ccc(Cl)cc2)NC(=O)NC1c1ccc(O)cc1 (configuration not stated)	i	1.7
CCOC(=O)c1[nH]cnc1C(=O)Nc1ccccc1C	i	-0.85
COc1cccc(CN2CCN(S(=O)(=O)c3ccccc3)CC2)c1OC	i	-1.1
COc1cc2[nH]c(=O)n(CCCC(=O)N3CC=C(c4ccccc4)CC3)c(=O)c2cc1OC	i	-0.53
NC(=O)c1c(NC(=O)CSc2nnc(Cc3ccccc3)n2Cc2ccco2)sc2c1CCC2	i	-0.71
COC(=O)/C(=C\c1c[nH]c2ccccc12)NC(C)=O	i	0.3
CCCc1cc(NCCCO)n2c(nc3ccccc32)c1C#N	i	-0.39
CC1(C)CC(=O)c2cc(C(=O)NC3CCSC3=O)c(=O)n(-c3ccc(Cl)cc3)c2C1 (configuration not stated)	i	-2.2
COC(=O)c1ccccc1-c1cn(C)c2ccccc2c1=O	i	2.1
Cc1ccc(S(=O)(=O)N(CC(=O)N/N=C/c2cccc3c2OCCO3)c2ccccc2F)cc1	i	2.9
C=CCn1c(=O)c2ccccc2n2c(SCc3csc(-c4ccccc4)n3)nnc12	i	0.77
Cc1cc(C)c2nc(N3CCC(C(=O)NCCCN4CC(C)CC(C)C4)CC3)sc2c1 (configuration not stated)	-6.4*	0.61*

Some of these compounds in order of length of the SMILES, largest number first:
SMILES	KCNQ2 inh	KCNQ2 inh baseline
CC1(C)CC(=O)c2cc(C(=O)NC3CCSC3=O)c(=O)n(-c3ccc(Cl)cc3)c2C1 (configuration not stated)	i	-2.2
NC(=O)c1c(NC(=O)CSc2nnc(Cc3ccccc3)n2Cc2ccco2)sc2c1CCC2	i	-0.71
C=CCn1c(=O)c2ccccc2n2c(SCc3csc(-c4ccccc4)n3)nnc12	i	0.77
COC(=O)/C(=C\c1c[nH]c2ccccc12)NC(C)=O	i	0.3
COC(=O)c1ccccc1-c1cn(C)c2ccccc2c1=O	i	2.1

Additional structures:
SMILES	KCNQ2 inh	KCNQ2 inh baseline
COc1ccc(C(=O)Nc2ccc(N3CCN(C)CC3)cc2)cc1[N+](=O)[O-]	i	0.43
Cc1cc(NC(=O)c2ccccc2-c2ccccc2)ccc1Br	i	0.31
Cc1cccc2[nH]c(CN(C)C(=O)CC3C(=O)NCCN3CC(C)(C)C)nc12 (configuration not stated)	i	2
COc1ccc(Cn2c(O)c(C=Nc3ccc(OC)cc3)c3ccccc3c2=O)cc1	i	2.2
CSc1nnc(C2CCCN(CC(=O)Nc3ccccc3N3CCOCC3)C2)n1C(C)C (configuration not stated)	i	-0.24
COC(=O)Cc1ccc(NC(=S)NCCSc2ccc(Cl)cc2)cc1	i	-0.24
O=C(CSC1=NCCS1)c1ccc(Cl)cc1	i	0.11
Cc1cccc(C)c1OCc1cc(C(=O)N2CC3C[C@@H]4CC2C[C@H](C3)C4)no1	i	-0.81
O=C(NC1CCCCC1)C(c1ccco1)N(CCc1ccccc1)C(=O)C(F)(F)F (configuration not stated)	i	0.28
CCn1c2ccccc2c2cc(C3C(C#N)=C(N)Oc4n[nH]c(COC)c43)ccc21 (configuration not stated)	i	-1
CCOC(=O)CC1(NC(=O)C2CCC(=O)N(CCc3ccc(OC)cc3)C2)CCCCC1 (configuration not stated)	i	-1.9
COc1cc(NC(=S)NC(=O)c2cccs2)ccc1NC(=O)C(C)C	i	2
CCn1c2ccc(C)cc2c2nnc(NN)nc21	i	-0.01
Cc1ccc(C)c2[nH]c(=O)c(CN(CCN3CCCC3)C(=O)Nc3cccc(Cl)c3)cc12	i	-1.7
Cc1ccc(SCCC(=O)Nc2cc(C)on2)cc1	i	0.26
Cc1cnc(C(=O)OC(C)C(=O)Nc2cccc3ccccc23)cn1 (configuration not stated)	i	1.6
CN(C(=O)COC(=O)c1ccccc1NCCO)C1CCS(=O)(=O)C1 (configuration not stated)	i	1.4
CC(=O)CSc1nnc(-c2ccc(S(=O)(=O)N3CCOCC3)cc2)n1C	i	0.49
O=S(=O)(Nc1cccc(-c2ccc(N3CCCCCC3)nn2)c1)c1cccc(F)c1	i	-0.35
COc1cc2c(cc1OC)CN(C(=O)c1cc3ccccc3oc1=O)CC2	i	0.4
CN1CCN(C(=O)C2CCCN(S(=O)(=O)c3ccc(Cl)cc3)C2)CC1 (configuration not stated)	i	1.2
COc1cc(OC)cc(C(=O)NCCC(c2ccccc2)c2ccccc2)c1	i	-1.6
O=C(C1CCC1)N1CCc2cc(S(=O)(=O)N3CCCCC3)ccc21	i	-0.16
O=C(CC1C(=O)NCCN1Cc1cccc(C(F)(F)F)c1)NC1CCOCC1 (configuration not stated)	i	-0.44
CN(Cc1cnn(C)c1)C(=O)CC1C(=O)NCCN1Cc1cccc(Oc2ccccc2)c1 (configuration not stated)	i	3
Cc1ccc(NC(=O)CSCC(=O)OCc2cc(=O)oc3cc(O)ccc23)c(C)c1	i	0.15
Cn1cnnc1SC1c2cccc3cccc(c23)C1NS(=O)(=O)c1ccccc1 (configuration not stated)	i	-1
COc1ccc2[nH]c(=O)c(CN(Cc3ccccc3)Cc3nnnn3CC3CCCO3)cc2c1 (configuration not stated)	i	-0.48
CN(Cc1ccccc1)C(=O)CN1CCN(C(c2ccccc2)c2ccccc2)CC1	i	-1.4
O=C(N/N=C/c1ccc(N2CCOCC2)s1)c1ccccc1Br	i	2

Fetched one by one from the entries so far:
SMILES	KCNQ2 inh	KCNQ2 inh baseline
Cn1cnnc1SC1c2cccc3cccc(c23)C1NS(=O)(=O)c1ccccc1 (configuration not stated)	i	-1
Cc1ccc(NC(=O)CSCC(=O)OCc2cc(=O)oc3cc(O)ccc23)c(C)c1	i	0.15
CN(Cc1ccccc1)C(=O)CN1CCN(C(c2ccccc2)c2ccccc2)CC1	i	-1.4
O=C(CC1C(=O)NCCN1Cc1cccc(C(F)(F)F)c1)NC1CCOCC1 (configuration not stated)	i	-0.44
O=C(N/N=C/c1ccc(N2CCOCC2)s1)c1ccccc1Br	i	2

New compounds follow:
SMILES	KCNQ2 inh	KCNQ2 inh baseline
COc1ccccc1NC(=O)Cn1cnc2sc(C(=O)Nc3cc(OC)c(OC)c(OC)c3)c(C)c2c1=O	i	-0.47
Cc1ccc2[nH]cc(C(=O)CCl)c2c1	i	0.1
Cc1ccc(N(CC2CO2)S(=O)(=O)c2ccc(C)cc2)cc1 (configuration not stated)	i	1.5
CCC(NC(=O)c1ccncc1)c1ccccc1 (configuration not stated)	i	-0.88
Cc1ccc(-n2nnnc2SCC(=O)Nc2c(C)n(C)n(-c3ccccc3)c2=O)cc1	i	1.6
C=CCn1c(Cc2csc(N)n2)nnc1SCC(=O)Nc1ccc(C(=O)OCC)cc1	i	3.5
COc1ccc(CCn2c(NN=C3CCCCC3)nc3c2c(=O)[nH]c(=O)n3C)cc1	i	-1.3
O=C(CN(c1ccc(F)cc1)S(=O)(=O)c1ccc2c(c1)OCCO2)NCc1cccnc1	i	-0.04
Nc1c2c(nn1-c1ccccc1)CCC2	i	1.2
CCc1ccc2c(c1)C(C)=CC(C)(C)N2	i	0.74
CCC(=O)Nc1cccc(NC(=S)NC(=O)c2cc3ccccc3o2)c1	i	0.03
CSc1ccc(C(=S)N2CCCC2)cc1	i	-0.39
CC(C)(CNC(=O)C1c2ccccc2-c2ccccc21)N1CCOCC1	i	-0.3

Screening data (PubChem)
